# KCNQ2 enhance: potentiators of rat KCNQ2 potassium channel; O88943; CHO-K1 KCNQ2, FluxOR thallium flux fluorescence; active compounds read high; B-score at 10 µM; 0.54% of 310,000 active;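 active means fluorescence ratio B-score at least 3 SD of library B-scores, with initial fluorescence B-score within 3 SD, cut at about 5.3 in these data; same plate scores as AID 2156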;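 further: B-score of peak minus minimum over baseline fluorescence ratio after K+ and Tl+ stimulus; positive B-score means potentiation of KCNQ2 with more thallium influx and brighter signal; only the inactives scoring about 0 or higher are listed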
# Target sequence (O88943 whole entry, looked up): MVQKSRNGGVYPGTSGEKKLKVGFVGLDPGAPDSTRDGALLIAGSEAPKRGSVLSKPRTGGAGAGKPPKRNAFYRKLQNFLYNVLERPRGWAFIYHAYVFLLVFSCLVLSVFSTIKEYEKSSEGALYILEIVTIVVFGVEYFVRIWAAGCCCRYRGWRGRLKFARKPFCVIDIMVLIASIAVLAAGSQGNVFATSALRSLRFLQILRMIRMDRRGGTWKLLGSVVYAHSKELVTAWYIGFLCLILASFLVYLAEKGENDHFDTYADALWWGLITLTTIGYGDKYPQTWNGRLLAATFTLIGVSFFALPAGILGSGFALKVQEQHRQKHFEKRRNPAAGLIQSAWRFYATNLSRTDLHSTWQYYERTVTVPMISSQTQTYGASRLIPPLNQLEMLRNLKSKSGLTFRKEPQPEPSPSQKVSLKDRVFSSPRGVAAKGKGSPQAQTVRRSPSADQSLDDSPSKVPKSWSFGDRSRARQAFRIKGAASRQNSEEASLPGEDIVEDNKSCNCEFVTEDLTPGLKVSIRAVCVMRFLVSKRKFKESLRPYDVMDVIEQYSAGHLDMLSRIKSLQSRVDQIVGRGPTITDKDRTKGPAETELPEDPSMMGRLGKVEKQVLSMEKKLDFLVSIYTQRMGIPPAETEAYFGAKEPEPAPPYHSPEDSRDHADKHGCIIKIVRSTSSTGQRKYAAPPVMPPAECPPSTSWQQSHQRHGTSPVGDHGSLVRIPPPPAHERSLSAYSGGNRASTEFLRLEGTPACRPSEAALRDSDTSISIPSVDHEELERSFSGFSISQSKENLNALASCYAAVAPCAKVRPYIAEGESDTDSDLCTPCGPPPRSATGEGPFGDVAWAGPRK
# KCNQ2 enhance baseline: further read-out of KCNQ2 enhance, marked with its call; B-score; compound at 10 µM; measured here: initial fluorescence intensity artifact check;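 brightness before thallium and not channel activity; 0 = typical well and far values either way flag optical interference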
# An asterisk follows results filed as active.
# Second line of a record – KCNQ2 enhance baseline, KCNQ2 enhance
CC(=O)O[C@@H]1[C@H]2[C@@H](C[C@@H](C)[C@@H]3CCC(=O)[C@@]13C)OC(=O)[C@@H]2C
 : -0.87, 1.1
CC(=O)Nc1ccc(S(=O)(=O)NCc2cn3ccsc3n2)cc1
 : -0.17, 0.46
Cc1cccc(-n2nnnc2SCC(=O)c2cc(C)n(CC3CCCO3)c2C)c1 (centres undefined)
 : -1.2, 0.62
O=C(N=C1SC2CS(=O)(=O)CC2N1c1c(Cl)cccc1Cl)C1CC1 (centres undefined)
 : -0.09, 0.01
COC(=O)CCSCC(=O)Nc1cc(C)on1
 : -0.59, 1.2
CCCC(c1nnnn1Cc1ccc(F)cc1)N1CCN(CC)CC1 (centres undefined)
 : -0.39, 0.5
c1csc(-c2ccc3ccccc3n2)c1
 : -1.3, 1.1
COC(=O)c1cc(NC(=O)CC2C(=O)NCCN2C(=O)c2ccccc2)cc(C(=O)OC)c1 (centres undefined)
 : -1.1, 0.33
CC(Oc1cccc2cccnc12)C(=O)N/N=C/c1ccc2c(c1)OCO2 (centres undefined)
 : -2.1, 0.34
CC(C)c1ccc(NC(=O)CSc2nc(=O)[nH]c3c2CCCC3)cc1
 : 0.46, 2.4
O=S(=O)(O)c1nc2ccccc2n1Cc1ccc(Cl)cc1Cl
 : 0.17, 0.98
CCN(C#N)c1nc(NC(C)C)nc(NC(C)(C)C)n1
 : 0.38, 0.42
COc1cccc(-c2nn(-c3ccccc3)cc2C(=O)O)c1
 : -0.16, 0.55
CC1CN(C(=O)CCC(=O)N2CCOCC2)c2ccccc2O1 (centres undefined)
 : 0, 0.76
Nc1nc2ccccc2n1/N=C/c1cccnc1
 : 0.08, 2
CC(C)N(C#N)c1nc(N2CCOCC2)nc(N2CCOCC2)n1
 : 0.17, 0.03
CCCCCSc1ncccc1C(=O)O
 : -1.6, 0.8
CC(Oc1cc2oc(=O)c3c(c2cc1Cl)CCC3)C(=O)NCC1CCC(C(=O)O)CC1 (centres undefined)
 : -2.3, 0.47
CCc1cccc(C)c1NC(=S)NCc1ccc2[nH]c(C)cc2c1
 : 0.91, 0.25
COc1cc(OC)cc(-c2cc(N3C(=O)Nc4ccccc4N3O)n[nH]2)c1
 : 1.7, 0.04
COc1ccc(N(CCC(=O)O)S(=O)(=O)c2ccc(C)cc2C)cc1
 : 0.9, 0.21
COc1ccc2c(-c3ccccc3)cc(=O)[nH]c2c1
 : 1.1, 0.91
CC1(C)Cc2c(sc3nc(N/N=C/c4ccccc4)[nH]c(=O)c23)CO1
 : 2, 0.24
O=C(CNC(=O)c1ccc(Cl)cc1)OCC(=O)c1ccc2c(c1)OCCO2
 : 0.45, 0.95
Cc1ccc2c(c1)nnn2C1CCN(S(=O)(=O)c2ccc(C(=O)O)cc2)CC1
 : 1.7, 0.22
Cc1ccc(S(=O)(=O)N2CCNC(=O)CC2)cc1
 : -0.62, 0.69
CCOc1ccc(NC(=O)Cc2cccc3ccccc23)c([N+](=O)[O-])c1
 : 0.65, 1.4
CC1CCCC(C)N1S(=O)(=O)c1ccc(NC(=O)CCn2cnc3ccccc3c2=O)cc1 (centres undefined)
 : 0.05, 2
O=C(O)c1ccc(CNCc2ccc(F)cc2)cc1
 : 0.05, 1.9
O=C(NCc1ccc(F)cc1)c1ccncc1
 : 1.6, 1.2

# Copied from the list.
# CC1CCCC(C)N1S(=O)(=O)c1ccc(NC(=O)CCn2cnc3ccccc3c2=O)cc1 (centres undefined) in KCNQ2 enhance baseline is entered as 0.05
# Cc1ccc(S(=O)(=O)N2CCNC(=O)CC2)cc1 in KCNQ2 enhance baseline is entered as -0.62

# The results go on.
# Second line of a record – KCNQ2 enhance baseline, KCNQ2 enhance
O=C(COc1ccccc1)N1CCN(C(=O)COc2ccccc2)CC1
 : -0.65, 1
COc1ccc(-c2cn3cc(Br)cnc3n2)cc1
 : -2.5, 0.28
O=C(O)c1cc(NS(=O)(=O)c2ccc3ccccc3c2)ccc1O
 : 0.3, 0.57
Cn1c(=O)c2c3c(sc2n2c(SCc4ccccc4)nnc12)CCCC3
 : -0.15, 1.1
COc1ccc(-c2ccnc3nc(-n4cccc4)nn23)cc1
 : -0.74, 0.14
CC(CNC(=O)CCn1ccc2cc(S(=O)(=O)N3CCCC3)ccc21)c1ccccc1 (centres undefined)
 : 0.56, 0.76
CN1CCN(C(=O)C2=C[C@H](C3CCCCC3)C[C@H](OCc3ccc(CO)cc3)O2)CC1
 : 0.49, 0.48
CC(=O)Nc1ccc(S(=O)(=O)NNC(=O)COc2ccc(Cl)cc2Cl)cc1
 : -0.04, 0.94
O=c1c2ccccc2c(-c2ccc(Cl)cc2)nn1-c1ccccc1
 : 0.14, 0.08
CCOC(CNC(=O)c1cccc([N+](=O)[O-])c1)OCC
 : 0.08, 0.02
Nc1ccccc1C(=O)NCc1ccccc1
 : 0.87, 0.47
O=S(=O)(CCc1nnc(-c2ccccc2)o1)c1ccc2ccccc2c1
 : -0.11, 1.1
O=C(CSc1nnc(COc2ccccc2)o1)Nc1ccc(F)cc1
 : -0.35, 1
CCC(CC)C(=O)c1c[nH]c(C(=O)NCCOC)c1
 : -1, 0.48
COc1ccc2nc(NC(=O)c3ccccc3C(=O)O)sc2c1
 : 0.69, 0.13
COc1ccccc1/C=C/C(C)=O
 : -0.37, 0.25
CC(=O)Nc1cccc(NC(=O)CCNC(=O)c2ccc(Cl)cc2)c1
 : 0.44, 0.19
Cc1cc(C(=O)Nc2c(C)n(C)n(-c3ccccc3)c2=O)c(C)o1
 : 3.1, 0.13
CSc1nnc(-c2ccc(Br)s2)n1C
 : -0.76, 0.03
CCN(CC)S(=O)(=O)c1ccc(NC(=O)Cn2cnc3ccccc3c2=O)cc1
 : 0.68, 0.03
CN(c1ccc(C(=O)NCc2cccnc2)cc1)S(C)(=O)=O
 : 0.11, 0.9
CCCN(C(=O)/C=C/c1ccco1)c1c(N)n(Cc2ccccc2)c(=O)[nH]c1=O
 : -0.8, 0.58
Cc1ccc(NS(=O)(=O)c2ccc(C(=O)N3CC(C)OC(C)C3)cc2)cc1 (centres undefined)
 : -1.3, 0.38
CCc1nnc(NC(=O)c2cc(-c3ccccc3)nn2-c2ccccc2)s1
 : 0.54, 0.2
CN(C(=O)COc1coc(CN2CCN(c3ccccc3)CC2)cc1=O)c1ccccc1
 : 0.18, 0.85
O=c1c2c(nc3cc(-c4ccc(Br)cc4)[nH]n13)CCCC2
 : -0.64, 0.01
Cc1cc(C(=O)CSc2n[nH]c(N)n2)c(C)n1-c1ccccc1
 : 0.06, 1.1
CC1=C(C(=O)O)N2C(=O)C(NC(=O)c3nn(C)c(C)c3Cl)C2SC1 (centres undefined)
 : -0.23, 0.05
O=C(NC1CC1)c1ccc(CS(=O)c2ccccc2)o1 (centres undefined)
 : -1, 1.6
CCOc1ccc(NC(=S)/C(=C(\[O-])c2ccc(C)c([N+](=O)[O-])c2)[n+]2ccccc2)cc1
 : 0.2, 1.1
COc1ccccc1-n1c(CNc2ccc(F)cc2)nnc1SCC(=O)Nc1cc(C)on1
 : 1.5, 0.73
COc1ccc(C2(C(=O)Nc3nncs3)CCCC2)cc1
 : 0.63, 0.5
N#Cc1ccc(NC(=O)Cn2c3[n+](c4ccc(C(F)(F)F)cc42)CCCCC3)cc1
 : -0.01, 0.45
CCN(CC)S(=O)(=O)c1ccc(NCC2COc3ccccc3O2)c([N+](=O)[O-])c1 (centres undefined)
 : -0.8, 1.3
COc1cc2c(cc1OC)CN(C(=O)CCNS(=O)(=O)c1ccc(Br)cc1)CC2
 : 0.08, 0.86
COc1cccc(C(=O)Nc2nnc(SCC(=O)NC3CC3)s2)c1
 : -0.69, 0.3
Cc1nc2ccccc2c(=O)n1Cc1ccc([N+](=O)[O-])cc1
 : -2.2, 0.12
CCn1c(=O)c2c3c(sc2n2c(SCc4ccc(F)cc4)nnc12)CCCC3
 : -0.22, 0.02
O=C(O)Cn1c(=O)c(-c2ccccc2)nc2ccccc21
 : 1.2, 0.54
COC(=O)[C@H](C(C)C)n1c(C)c(C(C)=O)c(C(C)=O)c1C
 : -1.6, 0.08
CCCCn1c(SCC(=O)NCc2ccco2)nc2ccccc2c1=O
 : -0.9, 0.88
COc1cccc(CN2CCC(n3nccc3NC(=O)C3CC3)CC2)c1
 : -0.18, 1.2
CC(=Nc1ccc(C)c(C)c1)C1=C(O)CSC1=O
 : -1.6, 1.3
Cc1ccccc1OCc1nnc(SCC(=O)NCc2ccco2)n1C
 : 0.04, 0.49
O=C(NCCc1ccccc1)C(=O)NCC1CCCN1S(=O)(=O)c1cccs1 (centres undefined)
 : -1.1, 0.14
CCC(C)Nc1nc2c(c(=O)[nH]c(=O)n2C)n1CCOc1ccccc1 (centres undefined)
 : 2.3, 0.46
CCCCCCCCC(=O)N/N=C/c1ccccn1
 : 1.6, 1.8
CCOC(=O)N1CCC(NC(=O)C2CCN(c3nc(-c4ccc(OC)cc4)no3)CC2)CC1
 : 0.01, 0.07
N#Cc1ccc(N2C(=O)[C@@H]3C(C(=O)c4cnccn4)=NN[C@@H]3C2=O)cc1
 : 2.8, 0.02
c1ccn2c(CNc3ncnc4sccc34)nnc2c1
 : -0.1, 0.42

# Looked up by compound from the entries so far (6):
# Second line of a record – KCNQ2 enhance baseline, KCNQ2 enhance
CCC(CC)C(=O)c1c[nH]c(C(=O)NCCOC)c1
 : -1, 0.48
CCN(C#N)c1nc(NC(C)C)nc(NC(C)(C)C)n1
 : 0.38, 0.42
CC(CNC(=O)CCn1ccc2cc(S(=O)(=O)N3CCCC3)ccc21)c1ccccc1 (centres undefined)
 : 0.56, 0.76
CCCCCSc1ncccc1C(=O)O
 : -1.6, 0.8
CC(=O)O[C@@H]1[C@H]2[C@@H](C[C@@H](C)[C@@H]3CCC(=O)[C@@]13C)OC(=O)[C@@H]2C
 : -0.87, 1.1
c1csc(-c2ccc3ccccc3n2)c1
 : -1.3, 1.1

# Next compounds
# Second line of a record – KCNQ2 enhance baseline, KCNQ2 enhance
CN1CCN(CCCCOc2ccccc2-c2ccccc2)CC1
 : 0.55, 0.59
Cc1cc2c(cc1S(=O)(=O)CCC(=O)N1CC(C)CC(C)C1)OCC(=O)N2 (centres undefined)
 : -1.5, 0.93
CCOc1ccc(NC(=O)CN2C(=O)C(C)SC(C)C2=O)cc1 (centres undefined)
 : -1.3, 0.67
O=C(NCCc1ccc(Cl)cc1)c1ccc(S(=O)(=O)N2CCCC2)cc1
 : -1.7, 1.3
Cc1ccc(Br)cc1S(=O)(=O)Nc1cccnc1
 : 0.1, 0.04
Clc1cccc(Nc2ncnc3c2cnn3-c2ccccc2)c1
 : 0.02, 0.65
CN(C(=O)COC(=O)c1ccccc1Cc1ccccc1)c1c(N)n(Cc2ccccc2)c(=O)[nH]c1=O
 : -0.67, 1.6
CS(=O)(=O)N(CCc1ccccc1)CC(=O)N1CCCC1
 : 0.01, 0.49
COc1ccc(C(CC(=O)N2CCCC(C)C2)c2c(O)cc(OC)cc2OC)cc1 (centres undefined)
 : 2.3, 0.75
O=C(CSc1nc2ccccc2c(=O)n1Cc1ccco1)N1CCCC1
 : 0.08, 0.45
c1ccc2c(c1)nc(N1CCOCC1)c1nnnn12
 : -0.77, 0.93
O=C(NC1CCCC1)c1cc2c(ccc3ccccc32)o1
 : -1.9, 0.87
CCCC1(CCC)NC(=O)N(CC(=O)Nc2ccccc2OC)C1=O
 : 0.57, 2.6
Cn1c(=O)cc(SCC(=O)N2CCOCC2)c2ccc(Cl)cc21
 : -0.7, 0.63
CCN(Cc1cnn(C)c1)C(=O)CC1C(=O)NCCN1Cc1cccc(OC)c1OC (centres undefined)
 : 0.02, 0.1
O=[N+]([O-])c1ccc(N2CCN(CCO)CC2)cc1NCc1ccco1
 : -1.8, 0.18
O=C(O)CSc1nnc(C2CC2)n1-c1ccccc1
 : 0.17, 0.48
COc1ccc(CNC(=O)CN(CC2CCCO2)C(=O)CNS(=O)(=O)c2ccc(C)cc2)cc1 (centres undefined)
 : -0.03, 1.1
CCCCN(CC)CCNC(=O)c1cc2c(=O)n(C)c3ccccc3c2n1C
 : -0.53, 0.7
Cc1cccc(NC(=O)C2CCCN2/C=C/C(=O)C(F)(F)F)c1C (centres undefined)
 : 0.54, 0.53
O=C(NCCCN1CCOCC1)c1ccc(CSCc2cccc(Cl)c2)o1
 : -0.46, 2.2
O=C(CCCN1C(=O)c2ccccc2C1=O)N1CCN(c2ccccn2)CC1
 : 0.32, 0.46
OCCN1CCOCCOCCN(CCO)CCN(CCO)CC1
 : -3.2, 0.37
O=C(CCC1CC(=O)Nc2ccccc21)NCc1cccnc1 (centres undefined)
 : -0.71, 0.3
O=C(O)CCCC(=O)N1CCN(C(c2ccccc2)c2ccccc2)CC1
 : 0.26, 0.46
CC(=O)Oc1ccc(C(=O)Nc2ccc3c(c2)OCCO3)cc1
 : -0.58, 0.82
C#CCCOC(=O)N1C2=NC(C(=O)OC)=C(C(=O)OC)[C@@H]3N(C)c4ccc(OC)cc4[C@]23C[C@H]1C(=O)OC
 : 1.3, 0.82
C/C(CC(=O)NC1CCCCC1)=N\NC(=O)Cc1ccc(-c2ccccc2)cc1
 : -1.7, 0.66
CC(=O)N1c2ccc(S(=O)(=O)N3CCCCC3)cc2CC1C(=O)NCc1ccccc1C (centres undefined)
 : 0.6, 0.11
O=c1[nH]c(CN2CCCCC2)nc2ccccc12
 : 1.1, 0.46
COc1ccc(N2CCN(C(=O)COC(=O)c3ccco3)CC2)cc1
 : 2, 0.73
COc1ccccc1N1CCN(S(=O)(=O)CCNC(=O)C2CCCCC2)CC1
 : 0.02, 1.7
CC(CCC(C)OC(=O)c1ccccc1C(=O)O)OC(=O)c1ccccc1C(=O)O (centres undefined)
 : 0.03, 0.02
COC(=O)C1CCN(c2cc(=O)n(Cc3ccc(F)cc3)c(=O)[nH]2)CC1
 : -1.8, 0.43
CC(=O)c1ccc(OCC(O)CN2CCN(S(=O)(=O)c3c(C)cc(C)cc3C)CC2)cc1 (centres undefined)
 : 0, 0.56
O=c1ccc2cc(S(=O)(=O)Nc3ccc(Br)cc3)ccc2o1
 : -0.7, 1.1
COc1cccc(OCc2cc(C(=O)NC(C)c3cnn(C)c3C)no2)c1 (centres undefined)
 : 0.4, 0.27
O=C(Nc1ccon1)c1ccc(OC2CCCC2)cc1
 : -1.8, 0.01

# These rows are one share of the data; rates above refer to the full screens.
